# B2AR ag – activates human beta-2 adrenergic receptor causing internalization; P07550; Am2.2-beta2AR cells, FAP receptor internalization, flow cytometry; reference of the scale not given here; 0.43% of 340,000 active; response, % (no concentration beside the values);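 active means response above a set limit, near 3 SD of response in nonfluorescent compounds, cut at about 42% in these data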;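 further: stock transfer was 100 nL into about 11 µL; a reference agonist was the positive control; negative values mostly stem from fluorescent compounds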
# Target sequence (P07550 whole entry, looked up): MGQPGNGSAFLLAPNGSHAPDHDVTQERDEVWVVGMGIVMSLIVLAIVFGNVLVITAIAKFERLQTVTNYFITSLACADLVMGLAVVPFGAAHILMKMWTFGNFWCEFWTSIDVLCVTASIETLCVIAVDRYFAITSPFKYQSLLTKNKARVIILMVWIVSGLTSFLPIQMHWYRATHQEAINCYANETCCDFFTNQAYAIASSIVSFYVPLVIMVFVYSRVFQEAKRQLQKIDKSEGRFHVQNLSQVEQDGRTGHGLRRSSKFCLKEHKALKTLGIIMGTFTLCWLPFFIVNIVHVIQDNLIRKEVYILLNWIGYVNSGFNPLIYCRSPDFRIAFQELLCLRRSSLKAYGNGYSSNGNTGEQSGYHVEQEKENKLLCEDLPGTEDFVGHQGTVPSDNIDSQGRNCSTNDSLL
# UCH37 DUB inh – inhibitors of human deubiquitinating enzyme UCH37. AID 588478. 0.33% of 330,000 active. purified proteasome/UCH37, Ub-AMC cleavage fluorescence. inhibition, % (no concentration beside the values);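 active means mean of two replicates above 20%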;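 further: 0% = compound-free wells with enzyme and 100% = wells lacking proteasome; stock transfer was 100 nL into about 20 µL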
# Target sequence (Q9Y5K5 whole entry, looked up): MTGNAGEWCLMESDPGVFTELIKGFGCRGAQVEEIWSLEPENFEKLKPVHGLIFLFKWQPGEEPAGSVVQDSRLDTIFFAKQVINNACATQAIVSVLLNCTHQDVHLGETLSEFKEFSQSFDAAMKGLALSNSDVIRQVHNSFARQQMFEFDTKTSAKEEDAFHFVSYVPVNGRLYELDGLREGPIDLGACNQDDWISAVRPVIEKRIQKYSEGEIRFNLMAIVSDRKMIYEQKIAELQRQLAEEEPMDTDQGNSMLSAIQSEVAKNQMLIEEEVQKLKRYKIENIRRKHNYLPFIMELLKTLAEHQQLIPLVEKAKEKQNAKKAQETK
#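 Test system – human UCH37 enzyme supplied as purified proteasome complex · Incubation – 30 min preincubation with enzyme, 25 min cleavage at room temperature · Detection – AMC fluorescence from Ub-AMC cleavage, excitation 355 nm, emission 460 nm · Benchmarks – no-proteasome wells (full inhibition) and compound-free wells (no inhibition)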
# HNF4A DNA FP – change in binding of human HNF4 alpha to DNA; P41235; HNF4a-FITC DNA binding, fluorescence polarization, 1 h; activity change, % at 10 µM; 0.3% of 360,000 active; in the data active means activity change above about 30%, passing the limit was not always enough;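 further: controls were the assay level and a saturating level of protein; the project sought stronger binding though the title names inhibitors; some compounds called inactive have numbers as strong as hits; positive values seem to mean higher polarization but the record does not say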
# Bfl-1 A1 inh – inhibitors of the anti-apoptotic protein A1, read as caspase activation. AID 2462. MEF A1-2A-BIM cells, Caspase-Glo 3/7 luminescence, 3 h; percent of clofoctol response, vehicle zero. caspase activation, % (no concentration beside the values). 0.066% of 330,000 active;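 active means over half of replicate activation scores above 10%, or exactly half above 10 with the replicate mean above 10; inconclusive means replicate mean below 10 yet half the replicates above 10; inactive means over half of replicates below 10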;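 further: wells of about 30 µL received 50 nL stock; many hits fall short of the cut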
# Ecoli growth – inhibitors of Escherichia coli growth; 0.21% of 330,000 active; OD600, 23 h; hits give low values; OD600 absorbance (concentration not given with the values);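 active means OD600 absorbance below the run mean of sample wells minus 3.6 SD, in any replicate, cut at about 0.56 in these data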;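 further: stock transfer was 300 nL into about 60 µL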
# Vif TR-FRET – inhibitors of Vif binding to APOBEC3G peptide, primary screen, biochemical, TR-FRET, GST-Vif 1-94, biotin-A3G peptide, dose response retest (AID 1117319) | TR-FRET GST-Vif / biotin-A3G peptide binding; higher % means a stronger effect; test concentration not given here; strong numbers were not always called active | one-dose inhibition, %; IC50 in µM for titrated hits | 0.57% of 260,000 active;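 active means above the screen mean plus three standard deviations and confirmed in dose response; inconclusive means results disagree or hit not tested in dose response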;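 further: Vif residues 1-94 fused to GST binding biotinylated APOBEC3G peptide 110-148; 0% = full assay without inhibitor and 100% = GST in place of GST-Vif; retest series ran down from 100 µM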
# LANA-H2A inh – blocks KSHV LANA binding to histone H2A/H2B. cell-free LANA-H2A/H2B peptide, fluorescence polarization. 0.6% of 320,000 active. inhibition, % (no concentration beside the values); in the data active means inhibition mostly above about 10%, no sharp cut-off; inactive means mostly below about 6.7%;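 further: stock transfer was 7.5 nL into about 10 µL; 0% = median of vehicle wells and 100% = median of positive control wells; one replicate is shown; the record names a cut of 25% in any replicate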
# An asterisk follows results filed as active; i = inactive; ? = inconclusive; · = no result given; & = joins results of further samples.
SMILES,B2AR ag,UCH37 DUB inh,HNF4A DNA FP,Bfl-1 A1 inh,Ecoli growth,Vif TR-FRET,LANA-H2A inh
CC(C)C(=O)Nc1ccc(-c2ccc3nncn3n2)cc1,-8.6,-2.5,-0.8,0.7,0.635,1.0%,8.1
O=C(CN1CCN(Cc2ccccc2Cl)C1=O)N1CCCCCC1,1.4,3.5,-2.8,0.8,0.771,2.8%,-0.7
O=C(CCC1N=C2c3ccccc3N=C(SCc3cccc(Cl)c3)N2C1=O)NCc1ccco1 (stereo unspecified),0.9,-7.5,-4.9,-0.7,0.718,?,-1.1
O=C(CCCC(=O)N(c1ccc2c(c1)OCCO2)C(C(=O)NC1CCCCC1)c1ccc(Cl)cc1)Nc1ccccn1 (stereo unspecified),12.7,-1.6,-2.8,0.4,0.674,-7.3%&4.8%,1.0
COc1ccc(NC(=O)C2CCC(CNS(=O)(=O)c3csc(C(N)=O)c3)CC2)cc1OC (stereo unspecified),-1.3,4.1,-3.9,1.5,0.734,7.3%,2.9
O=[N+]([O-])c1cccc(S(=O)(=O)Nc2ccc(S(=O)(=O)Nc3nccs3)cc2)c1,-0.2,-1.9,-0.3,1.6,0.703,·,1.6
Cc1ccc(-n2nc3c(=O)n(CC(=O)NCc4ccc(C)o4)nc(C)c3c2C)cc1,6.2,·,-3.9,-0.9,·,·,2.9
COc1ccc(CC(NC(C)=O)C(=O)NC2CCN(C(=O)c3ccc([N+](=O)[O-])cc3)CC2)cc1OC (stereo unspecified),-2.6,-0.2,-7.1,0.6,0.71,16.2%,7.5
CCOC(=O)c1c(NC(=O)CSc2ncn[nH]2)sc(C(=O)N(C)C)c1C,-5.7,2.7,-0.6,0.6,0.651,-1.9%,-2.9
CC(C)CN(C#N)c1nc(N2CCOCC2)nc(N2CCOCC2)n1,12.2,2.0,2.5,0.4,0.646,0.3%,0.1
O=C(COC(=O)Cc1ccsc1)Nc1ccc(Cl)cn1,-3.4,3.5,-1.7,0.2,0.678,-2.8%,i
CN(CCN1CCc2ccccc2C1)Cc1nc(-c2ccc3c(c2)OCO3)no1,0.0,0.0,2.2,-1.1,0.703,2.3%,1.8
CCCCOc1ccc(NC(=O)c2cc(F)c(F)cc2Cl)cc1,4.4,0.8,1.4,-0.9,0.691,2.7%,-2.0
CC(=O)Nc1ccc(NC(=O)C(C)Oc2ccccc2C(=O)NCc2ccccc2)cc1 (stereo unspecified),-7.4,0.3,-0.1,0.4,0.64,-5.2%,-2.1
CCC(=Cc1ccccc1O)c1ccncc1,-10.3,0.3,-1.2,·,0.689,-8.3%,·
Cc1cc(-c2nnco2)c(C)n1-c1ccccc1,-3.7,4.6,0.9,0.5,0.738,3.6%,-0.7
Cc1noc(NS(=O)(=O)c2ccc(NC(=O)C(C)C)cc2)c1C,6.6,1.6,-1.2,-0.1,0.616,·,0.3
C(=N\n1cnc2ccccc21)/c1cccnc1,-5.5,·,3.1,-0.9,·,-2.2%,2.1
CN(CCC#N)C(=O)COC(=O)c1ccc(Cl)c(S(N)(=O)=O)c1,2.1,3.8,-2.9,0.2,0.717,-2.8%,-9.5
O=C1C=C(c2ccc(F)nc2)CCC1,-12.0,3.9,2.2,0.0,0.682,·,-3.3
CCOc1ccccc1CN1C(=O)C2(OCCO2)c2ccccc21,0.8,2.8,2.2,1.1,0.671,·,-6.9
C=CCSc1n[nH]c(-c2ccc(OC)cc2)n1,-1.9,1.4,2.4,-1.7,0.736,5.8%,-9.3
CC(NC(=O)COC(=O)c1ccc(S(=O)(=O)N2CCOCC2)cc1)c1ccccc1 (stereo unspecified),8.9,4.8,-1.5,0.1,0.695,·,-2.7
Cc1sc(NC(=O)C2=COCCO2)c(C(N)=O)c1C,4.3,5.3,1.5,0.0,0.674,1.3%,·
CC(=O)CSc1ccc(S(=O)(=O)N2CCN(C)CC2)cn1,-2.8,0.9,3.1,-0.1,0.648,·,-0.7
CN1CCc2c1nc1ccccc1c2N (tested in a mixture with another compound),-0.5,-90.0,-0.6,0.0,0.648,·,-4.1
CCOC(=O)C1(Cc2cccc(F)c2)CCN(Cc2cnn(CC)c2)CC1,-4.3,4.4,3.2,-0.4,0.659,·,7.6
COc1ccc(C=CC(=O)c2cc(O)ccc2O)cc1,7.2,4.0,1.7,·,0.675,-1.0%,·
CCSc1ccc(C(=O)Nc2cccc(C)n2)cc1[N+](=O)[O-],6.3,1.4,-0.6,-2.3,0.685,1.4%,1.2
CCOc1ccc(OCC)c(NC(=O)c2nnn(CC(=O)Nc3cc(C)cc(C)c3)c2N)c1,-1.6,-41.0,-0.8,-0.6,0.647,-9.2%,0.2
COc1ccc(CCNC(=O)COC(=O)c2cc(OC)c(OC)cc2OC)cc1OC,6.0,1.2,0.5,-0.1,0.712,-3.4%,2.2
Cc1ccc(C(=O)OCC(=O)N2CCOCC2)c(C)c1,-12.7,6.2,1.8,0.3,0.663,·,0.0
CCc1ccc(NC(=O)C/C(C)=N/NC(=O)COc2ccc(C)cc2Br)cc1,-7.0,·,-0.1,0.5,·,·,9.2
O=C(O)/C=C/C(=O)NCCc1ccccc1,1.8,1.5,-2.9,1.4,0.625,0.2%,1.6
COC(=O)c1cc(Nc2cc(C)c3c(O)cccc3n2)cc(C(=O)OC)c1,23.6,-8.9,0.8,0.4,0.726,10.9%,-2.0
O=C(N/N=C/c1ccccn1)c1cc(C2CC2)[nH]n1,-0.8,·,-1.4,-0.9,·,-5.7%,-2.1

# 2 compounds drawn at random from the list so far, as already listed:
SMILES,B2AR ag,UCH37 DUB inh,HNF4A DNA FP,Bfl-1 A1 inh,Ecoli growth,Vif TR-FRET,LANA-H2A inh
CCOC(=O)C1(Cc2cccc(F)c2)CCN(Cc2cnn(CC)c2)CC1,-4.3,4.4,3.2,-0.4,0.659,·,7.6
CN1CCc2c1nc1ccccc1c2N (tested in a mixture with another compound),-0.5,-90.0,-0.6,0.0,0.648,·,-4.1

# Next section:
SMILES,B2AR ag,UCH37 DUB inh,HNF4A DNA FP,Bfl-1 A1 inh,Ecoli growth,Vif TR-FRET,LANA-H2A inh
COc1cccc(CNC(=O)c2csc3c2CCCC3)c1,-3.1,1.2,-3.9,1.7,0.677,·,1.2
Cc1c(CCC(=O)NCC(=O)NCC(=O)O)c(=O)oc2cc3oc4c(c3cc12)CCCC4,-9.1,-67.3,-2.5,-0.8,0.668,4.4%,-0.4
COC(=O)c1c(NC(=O)c2ccccc2)sc(C(N)=O)c1C,-7.0,-94.2,-2.0,-0.1,0.719,21.1%,2.5
COc1ccc(S(=O)(=O)N2CCc3ccccc32)cc1C(=O)OCc1nnc(-c2ccccc2)o1,16.9,2.8,0.3,1.2,0.731,?,5.3
COc1cccc(OCc2cc(C(=O)NCCN3CCCCC3CO)no2)c1 (stereo unspecified),7.7,0.4,5.2,-0.5,0.683,·,1.9
CN1CCN(CC(=O)O)CC1,-5.1,3.8,-1.0,-0.1,0.728,1.6%,3.2
Cc1nc2ccc(NS(=O)(=O)c3ccccc3F)cc2s1,1.6,-0.9,12.9,-0.3,0.698,7.9%,0.8
CCN(CC)S(=O)(=O)c1ccc(OC)c(NC(=O)c2cc(=O)[nH]c3ccccc23)c1,-2.8,1.2,-0.5,0.8,0.673,·,1.9
Cc1c(-c2ccccc2)n[nH]c1C(=O)N=Nc1c(O)[nH]c2ccccc12,-7.9,7.8,-3.9,-4.9,0.704,-3.5%,-1.7
O=[N+]([O-])c1ccc(C=NN2CCCCCC2)cc1,-0.9,1.5,3.3,·,0.668,-1.9%,·
CCOC(=O)C1CCCN(c2nc3ccccc3nc2NS(=O)(=O)c2ccc(C)cc2)C1 (stereo unspecified),8.8,-4.9,-1.9,-0.3,0.712,5.2%,-0.9
CC(=O)Nc1ccc(-n2cc(-c3ccccc3)[nH]c2=S)cc1,-11.5,-2.1,-4.0,0.1,0.676,-0.7%,-5.5
O=C(N/N=C/c1ccc(-c2ccc([N+](=O)[O-])cc2)o1)c1cccnc1,25.6,·,8.4,-0.3,·,8.2%,1.1
COc1cc(OC)c2ccc(=O)oc2c1C(CC(=O)N1CCOCC1)c1ccc(N(C)C)cc1 (stereo unspecified),-1.3,2.4,-0.2,0.7,0.717,·,-0.9
COc1ccc(C)cc1NC(=O)CSc1nnc(-c2cc3cccc(OC)c3o2)n1N,1.3,-0.6,-1.9,0.6,0.759,-1.9%,2.9
O=C(NC1CCCCC1)C1CCCN(S(=O)(=O)c2ccc(Br)s2)C1 (stereo unspecified),2.9,-0.7,-4.5,0.4,0.658,-9.0%,-0.7
COC(=O)C1(O)CC(C(C)C)=NN1C(=O)c1ccc(Cl)cc1 (stereo unspecified),1.3,4.4,1.0,1.0,0.704,1.4%,1.7
CC(C)(CO)CN1CCC(n2nccc2NC(=O)C2CCCC2)CC1,-9.9,-0.8,0.1,-0.3,0.685,-9.4%,1.0
COCCN(C(=O)CCCc1nc2ccccc2s1)c1c(N)n(CC(C)C)c(=O)[nH]c1=O,6.6,-8.1,-0.1,1.3,0.7,-18.1%,-5.6
O=S(=O)(NCc1ccc(F)cc1)c1ccccc1Br,-14.3,35.2*,-0.7,0.6,0.644,·,-2.3
CC(=O)Nc1cccc(C(=O)OCC(=O)c2ccccc2Cl)c1,-4.9,1.1,-1.1,-4.5,0.7,0.5%,0.7
NC(=O)CSc1nnc(Cn2c(=O)sc3ccccc32)n1-c1ccccc1,2.7,0.6,-1.8,-0.2,0.724,?,3.3
COc1ccc(C(=O)OCC(=O)N2CCCCC2)cc1[N+](=O)[O-],-8.8,2.4,-0.4,-0.1,0.644,2.7%,2.7
CCN(CC)c1ccc(-c2nc3cnccc3n2C)cc1,4.8,-13.9,-0.6,-1.7,0.744,10.7%,·
Cc1ccc(S(=O)(=O)N2CCOCC2)cc1NC(=O)CNCc1ccccc1Cl,4.5,2.2,2.3,·,0.688,7.3%,·
Cc1nn(-c2ncc(C(F)(F)F)cc2Cl)c(=O)n1-c1c(F)cccc1F,-1.3,-3.5,-1.0,-1.8,0.695,-8.6%,1.3
COc1cc(C(=O)Nc2ccc(NC(=O)c3ccccc3)nc2)cc(OC)c1OC,22.5,1.3,-2.6,0.5,0.648,·,-0.2
CCOC(=O)N1CCN(C(=S)Nc2cc(S(=O)(=O)N3CCOCC3)ccc2Cl)CC1,-0.2,0.7,2.8,-1.1,0.7,0.5%,-1.5
COCCCn1c(SCC(=O)N2CCCCC2C)nnc1-c1ccco1 (stereo unspecified),-1.0,1.9,-3.0,0.7,0.689,2.4%,2.7
O=C(NCCN1CCOCC1)c1cc(-c2cccc(O)c2)on1,0.7,1.8,1.2,-1.1,0.65,·,1.0
COc1ccc(-c2csc(NC(=O)c3ccc(S(=O)(=O)N4CCc5ccccc5C4)cc3)n2)c(OC)c1,5.1,-30.6,-1.8,-0.5,0.714,9.7%,-2.6
O=C(O)CNC(=O)C1(NC(=O)OCc2ccccc2)CCCC1,-1.0,1.9,0.1,·,0.67,1.4%,·
CN(CC(=O)Nc1ccc(Cl)c(C(F)(F)F)c1)C(=O)C1CSC2(C)CCC(=O)N12 (stereo unspecified),-1.6,4.5,-1.7,0.7,0.679,5.9%,0.2
O=C(COc1ccc(Cl)cc1)NNC(=O)C(=O)N1CCCCC1,6.1,1.5,-1.0,-0.9,0.653,-2.3%,2.5
CCOc1ccc(C2C(C(=O)c3cccs3)=C(O)C(=O)N2Cc2cccnc2)cc1 (stereo unspecified),3.2,1.8,-7.8,0.0,0.697,?,3.1
CCc1cc2c(=O)n(-c3ccccc3)c(SCC(=O)O)nc2s1,1.1,4.4,-2.7,-0.5,0.66,-1.4%,-1.4
O=c1c2c(nc3n1CCCCC3)-c1ccccc1CC21CCCCC1,-9.4,6.3,0.2,0.0,0.686,·,-4.7
Cc1ccc(OCC(=O)Nc2cc(C)on2)c([N+](=O)[O-])n1,-3.8,0.6,-5.6,-0.1,0.689,-3.4%,-2.9

# Screening data as filed in PubChem.
